miR-21 reporter = raises the signal of a miR-21 reporter | HeLa miR-21 FLuc reporter, luciferase, 48 h | Potency, µM (top dose mostly 38.3 µM), inactives show top-dose reporter change, positive = more light | 340,000 tested, under 10 active | AID 2288; active = well fitted rising curve with a large enough effect; inconclusive = small, poorly fitted or top-dose-only effect; inactive = no such curve, though single readings can be large or run the other way;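 note: % of control where 0% means no effect; miR-21 action dims this reporter so a rising signal means less miR-21 action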
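Luminescence from a firefly luciferase reporter carrying a miR-21 binding site downstream, stably expressed under a CMV promoter in HeLa cells that make miR-21 endogenously, reports miRNA modulation after 48 h compound exposure up to approximately 40uM final.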
Starred values were filed as active, the others as inactive; ? = inconclusive. Some of the compounds tested; rates above refer to the full screens.

miR-21 reporter	Compound
-28%	COc1ccc2c(C)c(CC(=O)NCc3ccccc3Cl)c(=O)oc2c1OC
-10%	CCOc1ccc(CNS(=O)(=O)c2c(C(=O)N3CCCCCC3)c(C)n(C)c2C)cc1OC
-18%	COc1ccc(NC(=O)c2sc3nc(-c4cc5ccc(OC)cc5oc4=O)[nH]c(=O)c3c2C)cc1
?	O=C(CCC(=O)N1CC2CCCN2c2ccccc21)NCc1cccc(Cl)c1 (stereo unspecified)
-6%	CCN(CC)S(=O)(=O)c1ccc2c(c1)N(CC(=O)NCCc1ccc(OC)c(OC)c1)C(=O)CO2
-9%	CCc1ccc2oc(C(=O)NCc3ccccc3)cc(=O)c2c1
-7%	COc1ccc(CCNC(=O)c2cccc(-n3c(C)nc4cccnc43)c2)cc1OC
-8%	O=C(Cc1ccccc1)Nc1sc2c(c1C(=O)Nc1cccc(Cl)c1)CCCCC2
4%	O=C(Cn1c(=O)c2cc(Cl)ccc2n2nncc12)Nc1ccccc1
-8%	CC1=C(c2ccc(C(C)C)cc2)S(=O)(=O)N=C1N1CCC(C(=O)NCc2ccc(C)o2)CC1
0%	Cc1c(C(=O)N(Cc2ccc(N(C)C)cc2)Cc2ccco2)oc2cc(Br)ccc12
1%	CCC(=O)NC1CC(=O)N(c2ccc3c(c2)OCCO3)C1 (stereo unspecified)
-15%	Cc1ccc(NC(=O)Cc2csc(C)n2)c(C)c1
0%	CCCCNC(=O)CCCN1C(=O)c2ccccc2Sc2ncccc21
11%	CC(C)(C)OC(=O)N1CCC(c2c(C(=O)NC3CCCCC3)cnn2-c2cccc(Cl)c2)CC1
-14%	CCOc1ccc(CNc2cc(C)nc3nc(-c4cccc(C)c4)nn23)cc1OC
-1%	Cc1ccc(CNC(=O)C(=O)NCC(c2cccnc2)N2CCN(c3ccc(F)cc3)CC2)cc1 (stereo unspecified)
0%	CC(=O)c1cccc(NC(=O)CCCN2C(=O)COc3ccc(C)cc32)c1
-19%	CC(=O)c1ccc(NC(=O)NCCc2c[nH]c3ccccc23)cc1
1%	CCOc1ccccc1NC(=O)CSc1nnc2[nH]c(=O)cc(-c3ccccc3)n12
-1%	CCOc1ccc(-n2c(SCc3nc(-c4ccccc4C)no3)nnc2-c2ccccc2)cc1
-10%	Cn1c(=O)c2c(nc(NCCCCO)n2Cc2ccccc2Cl)n(C)c1=O
?	Cc1ccc(S(=O)(=O)c2c(O)cc(C)c(NS(=O)(=O)c3ccc(Cl)cc3)c2C)cc1
24%	CCOc1ccc(CNC(=O)Cn2cc3c(n2)-c2c(oc(C(=O)N4CCOCC4)c2C)CC3)cc1
-1%	Cc1ccc(NS(=O)(=O)c2ccc(NC(=O)N3CCCC3)cc2)cc1C

Shown bar-delimited: entries from further up.
canonical_smiles | miR-21 reporter
CC(=O)c1cccc(NC(=O)CCCN2C(=O)COc3ccc(C)cc32)c1 | 0%
CCOc1ccc(-n2c(SCc3nc(-c4ccccc4C)no3)nnc2-c2ccccc2)cc1 | -1%
CC(=O)c1ccc(NC(=O)NCCc2c[nH]c3ccccc23)cc1 | -19%
CCOc1ccc(CNc2cc(C)nc3nc(-c4cccc(C)c4)nn23)cc1OC | -14%
Cn1c(=O)c2c(nc(NCCCCO)n2Cc2ccccc2Cl)n(C)c1=O | -10%
CCC(=O)NC1CC(=O)N(c2ccc3c(c2)OCCO3)C1 (stereo unspecified) | 1%

New compounds follow.
miR-21 reporter	Compound
-1%	O=C(CSc1nnc(-c2ccccc2)c(-c2ccccc2)n1)NC1CCCCC1
3%	COc1cccc2cc(-c3nc(Cl)c4c5c(sc4n3)CC(C)CC5)c(=O)oc12 (stereo unspecified)
-1%	CC(=O)c1cc(-c2ccccc2)n(CC(=O)Nc2ccc(C)cc2C)c1C
16%	Cc1ccc(NS(=O)(=O)c2cc(-c3cc(C)no3)ccc2C)c(Cl)c1
2%	CCCc1cc(=O)n2[nH]c(NCc3ccc(CC)cc3)nc2n1
14%	CC(=O)c1ccc(NC(=O)c2cnc(N3CCCC3)nc2C)cc1
-7%	COc1ccc(CCNC(=O)CCCn2c(=O)c3ccccc3n(Cc3ccc(F)cc3Cl)c2=O)cc1OC
12%	COc1ccc(CNS(=O)(=O)c2ccc(N3CCCCS3(=O)=O)cc2)cc1
10%	O=C(CN1c2ccccc2S(=O)(=O)c2ccccc21)Nc1cccc(C(F)(F)F)c1
-27%	CC(=O)N1CCOc2cc(S(=O)(=O)NCc3ccccc3Cl)c(C)cc21
-6%	Cc1cccc(-n2c(SCC(N)=O)nc3c(oc4ccccc43)c2=O)c1
-2%	COCCNC(=O)c1nn(-c2ccc(C)cc2)c(=O)n(C)c1=O
2%	COc1cc(Cl)c(C)cc1NC(=O)c1cc(S(=O)(=O)N2CCCC2)ccc1F
-10%	Clc1cccc(CNCCCSc2nnnn2-c2ccccc2)c1
2%	COc1ccc(S(=O)(=O)c2c(SC)nn(CC(=O)Nc3cccc(C)c3C)c2N)cc1
-11%	CCn1c(=O)c2sccc2n2c(CCCC(=O)Nc3ccc(Oc4ccccc4)cc3)nnc12
-1%	Cc1ccccc1Cn1c2ccccc2c2cnn(CC(=O)NC(C)CCc3ccccc3)c(=O)c21 (stereo unspecified)
5%	O=C(NCCc1ccccc1)c1cnc2sc(N3CCCC3)nn2c1=O
-1%	COc1ccc(CCn2c(=O)c3cccnc3n(CC(=O)Nc3cccc(C)c3)c2=O)cc1OC
-3%	COc1ccc(C2C=C(c3ccccc3)Nc3nc(NC(=O)/C=C/c4ccccc4Cl)nn32)cc1 (stereo unspecified)
0%	COc1ccc(CCNC(=O)CCCCn2c(=O)c3ccccc3n(CC(=O)Nc3ccc(C)cc3C)c2=O)cc1OC
-1%	COC(=O)c1ccccc1NC(=O)CSc1nnc2cc(C)c3cc(C)cc(C)c3n12
-6%	COc1ccc(-c2cc(C(=O)OC(C)C(=O)c3ccccc3)c3cccc(Cl)c3n2)cc1 (stereo unspecified)
1%	O=C(NCCc1ccc(Cl)cc1)C(=O)NCC(c1cccs1)S(=O)(=O)c1ccccc1 (stereo unspecified)
?	COc1ccc(CNC(=O)c2c(Nc3ccccc3C)sc(C(=O)c3ccccc3)c2N)cc1

Three successive records from above:
miR-21 reporter	Compound
-11%	CCn1c(=O)c2sccc2n2c(CCCC(=O)Nc3ccc(Oc4ccccc4)cc3)nnc12
-1%	Cc1ccccc1Cn1c2ccccc2c2cnn(CC(=O)NC(C)CCc3ccccc3)c(=O)c21 (stereo unspecified)
5%	O=C(NCCc1ccccc1)c1cnc2sc(N3CCCC3)nn2c1=O

The main list resumes with the 2 entries that preceded the break.
miR-21 reporter	Compound
1%	O=C(NCCc1ccc(Cl)cc1)C(=O)NCC(c1cccs1)S(=O)(=O)c1ccccc1 (stereo unspecified)
?	COc1ccc(CNC(=O)c2c(Nc3ccccc3C)sc(C(=O)c3ccccc3)c2N)cc1
1%	CCc1cccc(NC(=O)CSc2ncc3c(n2)-c2ccc(Cl)cc2N(Cc2ccccc2)S3(=O)=O)c1
24%	CCCCCOc1c(Cl)cc(C(=O)N(Cc2ccc(C)o2)C2CCS(=O)(=O)C2)cc1Cl (stereo unspecified)
-22%	O=c1oc2ccc(F)cc2cc1-c1nc(-c2cccs2)no1
8%	Cc1cc(NC(=O)c2cc(-c3ccc(F)cc3)on2)nn1Cc1ccc(Cl)cc1
15%	CCOC(=O)N1CCc2c(sc3c2c(=O)n(CCc2ccccc2)c(=O)n3Cc2ccc(F)cc2)C1
1%	Cc1ccccc1C(=O)Nc1nnc(S(=O)(=O)N(C)c2ccc(Cl)cc2)s1
28%	Cc1ccc(C(=O)N(c2ccc(C)cc2)S(=O)(=O)c2ccc(Cl)cc2)cc1
3%	COc1ccc(C)cc1NC(=O)COc1cc(=O)n(C)c2ccccc12
1%	CCOC(=O)c1c(NC(=O)c2cc(-c3ccc(OC)c(OC)c3)on2)sc2c1CCCC2
-8%	NS(=O)(=O)c1ccc2nc(NC(=O)COc3ccccc3)sc2c1
-29%	O=C(Nc1c(C(=O)Nc2ccccc2F)oc2ccccc12)c1cc2ccccc2o1
-7%	CCc1ccc(NC(=O)CC2C(=O)N(c3ccc(Cl)cc3)C(=O)N2C2CCCC2)cc1 (stereo unspecified)
21%	Cc1ccc(S(=O)(=O)N(CC(O)Cn2c3ccccc3c3ccccc32)c2cccc(C(N)=O)c2)cc1 (stereo unspecified)
1%	O=C(Nc1ccc(F)c(F)c1)c1cc(S(=O)(=O)NC2CCCC2)ccc1F
0%	Cc1ccccc1CNC(=O)c1oc2c(c1C)-c1[nH]ncc1CC2
3%	COC(=O)c1ccccc1NC(=O)c1cc(C)nc2c1c(C)nn2-c1ccc(C)cc1
-1%	Cc1ccccc1C(=O)NC(=O)Nc1ccc(-n2nc(C(F)(F)F)cc2C(F)(F)F)cc1
5%	CN1CCN(C(c2cccc(Br)c2)c2sc3nc(-c4ccco4)nn3c2O)CC1 (stereo unspecified)
23%	COc1ccc(CC(=O)N2CCc3cc(OC)c(OC)cc3C2COc2ccc(OC)cc2)cc1 (stereo unspecified)
-8%	COc1ccc(N(C(=O)COc2ccc(Br)cc2)S(=O)(=O)c2ccc(C)cc2)cc1
3%	COc1ccc(N2C(=O)C(CC(=O)Nc3ccc(Cl)cc3)N(Cc3ccc4c(c3)OCO4)C2=O)cc1 (stereo unspecified)
-51%	Cc1cccc(-c2nnc(SCC(=O)N3CCCCC3)o2)c1
4%	Cc1c(C)c2cc3c(c(C)c2oc1=O)OCN(CCc1ccc(F)cc1)C3
9%	CCCCN(Cc1ccccc1)S(=O)(=O)c1cc(Br)cc2c1N(C(=O)C1CC1)CC2
?	COc1ccc(Nc2ncnc3onc(-c4ccc(Cl)cc4)c23)cc1Cl

(cont.)
miR-21 reporter	Compound
-61%	Cc1c(Cl)cccc1NC(=O)c1noc2c1CCCC2
12%	COc1ccc(CNC(=O)c2cc3c(=O)[nH]c4ccccc4c3n2C)c(OC)c1
13%	COc1ccc(Cn2c(C(=O)O)c(CNCC(C)c3ccccc3)c3ccc(OC)cc32)cc1 (stereo unspecified)
7%	Cc1ccc(C)c(CN2C(=O)c3ccccc3Sc3ccc(C(=O)NCCCOC(C)C)cc32)c1
2%	CCc1ccccc1NC(=O)Cn1cc(S(=O)(=O)N2CCCC2)c(S(=O)(=O)N2CCCC2)c1
16%	COc1ccc(C2=Nc3ccc(OC(F)(F)F)cc3NC(c3cccnc3)=N2)cc1
-17%	COc1ccc(OC)c(NC(=O)CSc2nnc3ccc4ccccc4n23)c1
20%	Cc1c(C(=O)OC2CCCCC2)[nH]c2c1C(=O)CC(c1ccccc1Cl)C2 (stereo unspecified)
-3%	CCN1C(=O)/C(=C\c2ccc(-c3cccc(C(=O)OC)c3)o2)SC1=Nc1ccc(C(=O)O)cc1
1%	COc1ccc(C)cc1NC(=O)C(Cc1ccccc1)NS(=O)(=O)c1ccc(Br)s1 (stereo unspecified)
-2%	Cc1ccc(Cn2ccnc2SCC(=O)NCc2ccccc2)cc1
25%	CCOc1ccc(CNC(=O)c2cccc(NC(=O)N3CCSc4ncccc43)c2)cc1OC
-12%	Cc1ccc(CNC(=O)Cn2cc(S(=O)(=O)Cc3cccc(Cl)c3)c3ccccc32)cc1
7%	COc1ccccc1NC(=O)c1sc2nc3c(c(C(F)(F)F)c2c1N)CN(C(C)=O)CC3
25%	CCOc1ccccc1CNS(=O)(=O)c1cc2c(cc1C)NC(=O)CO2
8%	CCc1ccc(OCC(=O)N(Cc2ccc(C(C)C)cc2)C2CCS(=O)(=O)C2)cc1 (stereo unspecified)
18%	CC(=O)Nc1nonc1-c1nnc(SCC(=O)Nc2cc(C)ccc2C)n1-c1ccccc1
-17%	COc1ccccc1NC(=O)Cn1nc(-c2ccc(C)cc2)c2c(c1=O)CCCC2
-6%	CCc1ccccc1NC(=O)Cn1c2ncccc2c(=O)n1-c1ccccc1
0%	COc1cccc(NC(=O)c2csc3c2CCCCC3)c1
-10%	Cc1cc2nn(-c3ccc(F)cc3)nc2cc1NC(=O)c1ccc(OC(C)C)cc1
4%	Cc1ccc(N2CCN(Cc3nnc(-c4ccc5c(c4)OCO5)o3)CC2)c(C)c1
1%	Cc1ccc(NC(=O)Cn2c(C)cc(C)c(C#N)c2=O)cc1F
?	Cc1ccc(NC(=O)c2ccc(CNS(=O)(=O)c3ccc4c(c3)C(C)(C)C(=O)N4C)cc2)cc1F
-1%	COc1ccc(NC(=O)CN(c2ccc(C)cc2)S(=O)(=O)c2cccs2)cc1

(cont.)
miR-21 reporter	Compound
0%	COc1ccc(NC(=O)c2nnn(CC(=O)Nc3c(C)cc(C)cc3C)c2N)cc1OC
-4%	COc1ccc(-n2c(=O)c3ccc(C(=O)NCc4ccc(C)cc4)cc3n(CC(=O)Nc3cccc(F)c3)c2=O)cc1
-5%	Cc1ccn2c(NC(=O)c3cccc(Cl)c3)c(-c3ccccc3)nc2c1
-3%	O=C(Cn1ncn2nc(-c3cccs3)cc2c1=O)NCc1cccc(Br)c1
16%	COc1ccc(-c2nc3scc(CCNC(=O)c4cccc(Br)c4)n3n2)cc1
0%	CCc1cnc2c(c1SCC(=O)c1ccc(Cl)cc1)c(=O)n(C)c(=O)n2C
-21%	CC(=O)Nc1nonc1-c1nnc(SCC(=O)Nc2cccc(C)c2C)n1-c1ccccc1
-65%	Cc1ccn2c(Nc3ccc4c(c3)OCCO4)c(-c3ccc(Cl)s3)nc2c1
?	CCCCOc1ccc(C(=O)NCCS(=O)(=O)N2CCN(c3ccccc3OC)CC2)cc1
-5%	COCCNC(=O)CSc1nc2ccccc2nc1Cc1ccc(C)cc1
11%	CCC(=O)N1c2ccccc2CC1C(=O)NCCCN1CCN(c2cc(C)ccc2C)CC1 (stereo unspecified)
4%	O=C(Nc1c(O)c2ccccc2oc1=O)c1cccc(F)c1
